ClpP mod = qHTS Assay for Activators of ClpP; ATP-dependent Clp protease proteolytic subunit (Bacillus subtilis (strain 168)), P80244; AID 651965, 2013; purified B. subtilis ClpP, FRET peptide cleavage, 20 min; Potency, µM (doses to about 57.5 µM), inactives show top-dose activity change, negative = active; 1.9% of 340,000 active; active = well fitted falling curve with a large enough effect; inconclusive = small, poorly fitted or top-dose-only effect; inactive = no such curve, though single readings can be large or run the other way; note: the source files actives as falling curves though it sought activators and does not explain the sign; nearly all actives have a fitted effect of over 65% in size; many hits overshoot -100%
Target sequence (P80244 whole entry, looked up): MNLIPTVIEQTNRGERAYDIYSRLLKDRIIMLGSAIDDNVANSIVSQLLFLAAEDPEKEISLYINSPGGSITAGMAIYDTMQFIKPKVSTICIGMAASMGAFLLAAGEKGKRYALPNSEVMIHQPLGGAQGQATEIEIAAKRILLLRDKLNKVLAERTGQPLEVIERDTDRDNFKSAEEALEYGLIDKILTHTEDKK
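Purified B. subtilis ClpP, 10 microg/mL final in Tris/HCl pH8 with KCl, BSA, glycerol and Tween-20, cleaved an Abz/nitrotyrosine-quenched decapeptide. Fluorescence (ex 320, em 430) was read at 0 and 20 min at room temperature. Delta was normalized to 5.8 microM ADEP and DMSO/no-enzyme controls.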
Starred values were filed as active, the others as inactive; ? = inconclusive. Potency is the fitted concentration of half-maximal effect.

SMILES | ClpP mod
CCOc1ccc(NC(=O)c2oc3ccccc3c2NC(=O)Cc2cccs2)cc1 | 182.6%
COc1ccc(S(=O)(=O)Nc2cccc(-c3ccc(N4CCOCC4)nn3)c2)cc1F | 0.8%
Cc1ccc(NC(=O)Cn2nc(C)c3nn(-c4ccc(Cl)cc4)c(C)c3c2=O)cc1C | -4.5%
CCOc1ccc2nc(N3CCCC(C(=O)Nc4ccccc4CC)C3)sc2c1 (stereo unspecified) | 1.0%
O=C(NCCc1ccccc1)c1ccc(CSc2nc3cccnc3n2Cc2ccccc2)cc1 | 4.0%
COc1ccc(NC(=O)CCCN2C(=O)CCn3nc(-c4cn(C)c5ccccc45)cc32)cc1OC | -7.4%
CCOC(=O)c1cc2c(=O)n3ccccc3nc2n(C)c1=NC(=O)c1c(-c2ccccc2Cl)noc1C | -7.0%
COC(=O)c1cc(NC(=O)c2cc3sccc3n2Cc2ccc(Cl)cc2)cc(C(=O)OC)c1 | ?
CCOc1ccccc1NS(=O)(=O)c1c(-c2ccc(C)cc2)csc1C(=O)OC | 2.1%
COc1ccccc1CNc1nc2ccccc2c2nc(-c3cccc(C)c3)nn12 | -3.8%
COc1ccccc1NC(=O)CSc1nnc(NC(=O)NC2CCCCC2)s1 | -0.8%
CCOc1ccccc1CNC(=O)c1cc2c(=O)n(Cc3ccccc3)ccc2nc1C | 4.1%
CCOC(=O)CN1C(=O)c2cccnc2Oc2ccccc21 | -1.3%
CCN(CC)S(=O)(=O)c1ccc(C(=O)NCCSc2c(-c3ccc(OC)cc3)[nH]c3ccccc23)cc1 | -20.5%
COc1cccc(-c2nn(C)c3sc(C(=O)NCc4ccc(OC)cc4OC)cc23)c1 | 4.2%
COc1ccc(-c2[nH]c(-c3ccccc3)nc2SCC(=O)Nc2ccc3c(c2)OCO3)cc1 | ?
CCCN1CCN(CCCNC(=O)c2cc3c(Cl)nc4ccccc4c3s2)CC1 | -1.4%
O=C(CSc1oc(-c2ccc(F)cc2)nc1S(=O)(=O)c1ccc(Cl)cc1)c1ccccc1 | -0.8%
Cc1cc(C)cc(NC(=O)CN(c2cc(C(F)(F)F)ccc2Cl)S(=O)(=O)c2ccccc2)c1 | -0.9%
CC(=O)Nc1nonc1-c1nnc(SCC(=O)N(C)c2ccccc2)n1C | 0.9%
COC(=O)c1cc(Nc2nc3ccccc3nc2NS(=O)(=O)c2ccc(C)cc2)ccc1Cl | -22.0%
Cc1nc2cccnc2n1C1CCN(S(=O)(=O)c2ccc(Cl)cc2)CC1 | -0.1%
CC(C)c1ccc(NC(=O)CSc2ncc3c(n2)-c2ccccc2N(C)S3(=O)=O)cc1 | 3.6%
CCc1ccccc1N(C)C(=O)c1nn(C)c2c1CSc1ccccc1-2 | -0.4%
CC(C)(C)c1ccc(OCC(=O)N(Cc2ccco2)Cc2ccccc2F)cc1 | 0.1%
SMILES | ClpP mod
CCOC(=O)c1c(C)oc2nc(C)nc(NCc3ccccc3OC)c12 | -5.6%
COc1ccc(CNC(=O)c2ccc3c(Cl)c4c(nc3c2)CCCC4)c(OC)c1 | -3.0%
CCC1=C(c2ccc(C)cc2)S(=O)(=O)N=C1N1CCC(C(=O)Nc2ccccc2C(=O)OC)CC1 | -0.3%
CC(C)Cn1c(=O)c2sccc2n2c(CCCC(=O)NC3CCCCC3)nnc12 | -6.8%
O=C(NCc1cccs1)c1nn(-c2ccccc2Cl)nc1CO | 1.4%
CCCN(CCC)CCCNC(=O)C1CCN(S(=O)(=O)CC)CC1 | -0.7%
CCCCc1ccc(NC(=O)c2ccc(=O)n(Cc3cccc(C)c3)c2)cc1 | -28.6%
CCC(=O)N1CCCc2cc(S(=O)(=O)N3CCC(C(=O)NC4CCC(C)CC4)CC3)ccc21 (stereo unspecified) | -5.9%
COc1ccc(-c2nc(CS(=O)CC(=O)NCc3ccccc3OC)c(C)o2)cc1 (stereo unspecified) | ?
CCOC(=O)C1=C(CN(CC)Cc2ccccc2)NC(=O)NC1c1ccc(OC(C)C)cc1 (stereo unspecified) | -1.4%
CCCNC(=O)CSc1c(CCC)cnc2c1c(=O)n(C)c(=O)n2C | 0.3%
Cc1ccc(NC(=O)NC(C)c2c(-n3cccc3)sc(C)c2C)cc1F (stereo unspecified) | -1.8%
Clc1ccc(CCNc2ncnc3c2c(-c2ccccc2)cn3-c2ccccc2)cc1 | 20µM*
COc1ccc(OC)c(NCc2cccn2-c2nnc(N3CCCCC3)s2)c1 | 0.8%
COc1cccc(NC(=O)Cn2c(=O)n(CCCCC(=O)NCc3ccccc3Cl)c(=O)c3ccccc32)c1 | ?
Cc1c(CCO)sc[n+]1CC(=O)c1ccc(F)cc1 | -0.3%
Cc1ccc(CNC(=O)CCC(=O)N2CCSc3ccccc32)cc1 | 0.3%
Cc1ccc(-n2ncc3c(NCCCn4ccnc4)ncnc32)cc1C | 4.1%
C=Cc1ccc(Cn2c(=O)n(-c3ccccc3C)c(=O)c3c4c(sc32)CN(C(C)=O)CC4)cc1 | -4.4%
COc1ccc(NC(=O)[C@@H]2CC=C[C@@H]3CCN(C4CC4)C(=O)[C@@H]32)cc1 | -0.7%
CC1CCc2nc(-c3cc4c(ccc5ccccc54)oc3=O)sc2C1 (stereo unspecified) | ?
COc1ccc2c(CNCc3cccs3)c(C(=O)O)n(Cc3ccc(C)cc3)c2c1 | -4.4%
CC(C)CC(=O)Nc1cc(-c2ccccc2F)nn1-c1ccccc1 | -6.0%
Cc1ccc(Cn2nc(C)c(NC(=O)c3cc(-c4ccc(F)cc4)on3)c2C)cc1 | 1.4%
NS(=O)(=O)c1ccc(CCNC(=O)Cn2c(=O)c3cccn3c3ccc(F)cc32)cc1 | ?

No new results follow: entries from further up.
SMILES | ClpP mod
CCOc1ccc(NC(=O)c2oc3ccccc3c2NC(=O)Cc2cccs2)cc1 | 182.6%
COc1ccc(S(=O)(=O)Nc2cccc(-c3ccc(N4CCOCC4)nn3)c2)cc1F | 0.8%
Cc1ccc(NC(=O)Cn2nc(C)c3nn(-c4ccc(Cl)cc4)c(C)c3c2=O)cc1C | -4.5%

(further entries)
SMILES | ClpP mod
CCC(=O)Nc1ccc(S(=O)(=O)NCc2ccc3c(c2)CCN3C(=O)c2ccc(C)cc2)cc1 | -1.1%
CC(C)c1ccc(S(=O)(=O)c2nnn3c2nc(N2CCCCC2)c2sccc23)cc1 | 25.1µM*
CC(C)CCNS(=O)(=O)c1ccc(N2CCCCS2(=O)=O)cc1 | -1.3%
Cc1ccc2occ(CC(=O)N(Cc3ccc(Cl)cc3)C3CCS(=O)(=O)C3)c2c1 (stereo unspecified) | 0.2%
COc1ccccc1C(=O)N/C(=C\c1cn(S(=O)(=O)N(C)C)c2ccccc12)C(=O)NCCCn1ccnc1 | -4.3%
COc1ccc(NC(=O)Cn2c(=O)n(Cc3ccccc3OC)c(=O)c3cccnc32)cc1Cl | 2.7%
COc1cc(OC)c(OC)cc1CN1CCc2nc(Nc3ccc4c(c3)OCCO4)ncc2C1 | -6.2%
COc1ccc(C(=O)NCCn2cc(SCc3ccc(C(F)(F)F)cc3)c3ccccc32)cc1OC | -5.9%
O=C(NCCCc1nc2ccccc2n1Cc1ccc(Cl)cc1Cl)c1ccco1 | 1.1%
O=C(Cn1cc(SCc2cccc(F)c2)c2ccccc21)N1CCOCC1 | -3.0%
COc1cccc(N2C(=O)CSC23C(=O)N(Cc2ccccc2F)c2ccccc23)c1 (stereo unspecified) | -2.0%
COc1ccccc1S(=O)(=O)Cc1ccc(C(=O)N2CCN(c3cc(Cl)ccc3C)CC2)o1 | -3.0%
Cc1ccccc1Nc1c(-c2cccc(Cl)c2)nc2ncccn12 | -2.5%
O=C(c1cc(F)cc(F)c1)N1CCC(c2nc(-c3ccc(S(=O)(=O)N4CCCC4)cc3)no2)CC1 | -5.2%
O=C(NCCCN1CCN(c2cccc(Cl)c2)CC1)c1ccc2nc(Cc3ccccc3)oc2c1 | -5.4%
CCOc1ccc(NC(=O)CSc2ncc(S(=O)(=O)c3ccc(F)c(C)c3)c(=O)[nH]2)cc1 | 1.1%
Cc1ccc(C)c(NC(=O)CN(Cc2ccccc2)S(=O)(=O)c2ccc3nc(C)sc3c2)c1 | -2.9%
COc1ccc(-c2noc(CC(=O)Nc3ccc(Br)cc3C)n2)cc1 | -0.1%
COc1ccc(NC(=O)CCc2c(C)nn(-c3ccc(N4CCCC4)nn3)c2C)cc1Cl | 0.7%
Cc1ccc(Nc2c(-c3ccc(Cl)cc3)nc3sccn23)c(C)c1 | -2.0%
COc1ccc(CNC(=O)CN2C(=O)COc3ccc(S(=O)(=O)N4CCCCCC4)cc32)cc1 | -1.0%
Cc1nc(-c2cccc(NC(=O)Nc3ccccc3C(F)(F)F)c2)no1 | 1.0%
Cc1ccc(C)c(NC(=O)Cn2cc(S(=O)(=O)c3ccc(F)cc3)c(=O)c3cc(F)ccc32)c1 | 0.9%
Cc1c(Cl)cccc1NC(=O)CCN1C(=O)c2ccccc2Sc2ncccc21 | -2.5%
O=C(CSc1ncc(S(=O)(=O)c2ccc(Br)cc2)c(=O)[nH]1)Nc1ccc2c(c1)OCCO2 | -0.7%
SMILES | ClpP mod
O=C(CNC(=O)c1ccc(F)cc1)OCc1cc(=O)n2nc(C3CC3)sc2n1 | -5.7%
COc1cccc(OCC(=O)NCCS(=O)(=O)N2CCN(c3ccccc3F)CC2)c1 | -2.8%
Cc1cc(C)cc(-n2c(C)nc3cc(C(=O)NCc4ccc(F)cc4)ccc32)c1 | -1.2%
CC(=O)c1ccc(N2CCN(c3nc4ccccc4c4nc(-c5cccc(C)c5)nn34)CC2)cc1 | -2.8%
Cc1ccc(C(=O)c2cn(Cc3ccccc3)c3cc4c(cc3c2=O)OCCO4)cc1 | 0.5%
COc1cccc(CNC(=O)CN2C(=O)N(c3cccc(Cl)c3)S(=O)(=O)c3ccccc32)c1OC | 0.5%
CCc1c(C)nc2nncn2c1NCc1ccccc1 | -2.7%
CCc1ccccc1NC(=O)c1nn(-c2ccc(C)cc2)c(=O)c2c1c1ccccc1n2C | 0.8%
COc1ccc(Cn2c(CCC(=O)NCc3cccc(Cl)c3)nc3cccnc32)cc1 | 4.7%
C(=C\c1ccnc2ccccc12)/c1ccc(-[n+]2cc[n+](-c3ccc(/C=C/c4ccnc5ccccc45)cc3)cc2)cc1 | -3.7%
CCc1nc2ccccc2n1CCCCOc1ccc(C)cc1 | 0.0%
COc1ccc(C(CNC(=O)c2cccc([N+](=O)[O-])c2)N2CCOCC2)cc1 (stereo unspecified) | -1.6%
Cc1cc(C)cc(-n2ccn3cnnc3c2=O)c1 | 2.3%
COc1ccc(Nc2c3c(nc4nncn24)CCC3)cc1Cl | 1.5%
CCOc1cc(CNC(=O)C2CCN(c3nc4ccccc4[nH]3)CC2)cc(OCC)c1OCC | -1.9%
COCCCNC(=O)c1sc2nc(C)c(C(=O)Nc3ccc(C)cc3C)c(-c3ccccc3Cl)c2c1N | -1.0%
CC(C)c1ccc(NC(=O)c2ccc3c(c2)CCCN3S(C)(=O)=O)cc1 | -15.6%
O=C(C[N+]12CN3CN(CN(C3)C1)C2)c1ccc(-c2ccccc2)cc1 | 3.0%
Cc1ccc(-c2c(CN3CCN(c4cccc(C)c4)C(C)C3)csc2C)cc1 (stereo unspecified) | -8.7%
O=C(Nc1ccccc1)c1cn(-c2ccccc2)nc1-c1ccccc1 | -7.5%
CC1=C(c2ccc(C)c(C)c2)S(=O)(=O)N=C1N1CCC(C(=O)NCCc2ccco2)CC1 | 0.1%
CCN(CC)C(=O)c1sc2c(c1C)c(=O)n(-c1ccc(C)c(C)c1)c(=O)n2CC(=O)Nc1ccc(F)cc1 | 1.3%
CCC(C)NC(=O)CCCN1C(=O)CCn2nc(-c3cccn3C)cc21 (stereo unspecified) | -0.4%
CCOc1ccc(NC(=O)NCCn2nnc3cc(S(=O)(=O)N(C)C)ccc32)cc1 | 2.1%
Cc1c2cnn(-c3ccccc3)c(=O)c2c(C)n1CC(=O)NCCc1ccc(Cl)cc1 | -1.4%

6 compounds out of the list, sorted by length of the SMILES, largest number first.
SMILES | ClpP mod
CCN(CC)C(=O)c1sc2c(c1C)c(=O)n(-c1ccc(C)c(C)c1)c(=O)n2CC(=O)Nc1ccc(F)cc1 | 1.3%
Cc1ccc(C(=O)c2cn(Cc3ccccc3)c3cc4c(cc3c2=O)OCCO4)cc1 | 0.5%
COc1cccc(OCC(=O)NCCS(=O)(=O)N2CCN(c3ccccc3F)CC2)c1 | -2.8%
O=C(C[N+]12CN3CN(CN(C3)C1)C2)c1ccc(-c2ccccc2)cc1 | 3.0%
CCc1nc2ccccc2n1CCCCOc1ccc(C)cc1 | 0.0%
Cc1cc(C)cc(-n2ccn3cnnc3c2=O)c1 | 2.3%

Further records follow.
SMILES | ClpP mod
CCCCn1cc(S(=O)(=O)c2ccc(OC)cc2)c(=O)c2cc(CC)ccc21 | -5.9%
CCOc1ccccc1NC(=O)Cn1c(=O)n(CCC(C)C)c(=O)c2cccnc21 | -0.5%
CCOC(=O)c1cnc2cc(F)c(F)cc2c1Nc1ccccc1O | -1.2%
CCOC(=O)c1nc(Nc2ccc(C(=O)OCC(C)C)cc2)c2ccccc2n1 | 4.5%
CCOc1ccccc1CNC(=O)CCn1c(=O)c2cccn2c2ccc(F)cc21 | -13.5%
COc1cccc(CNC(=O)c2cc3c(-c4ccccc4F)nn(C)c3s2)c1 | 4.2%
COc1cccc(CNCCSc2nnnn2C)c1OCc1ccc(Cl)cc1 | -0.5%
COc1ccccc1OCCSc1nc2ccccc2n1CC(=O)N1CCOCC1 | 0.0%

Bioassay records as filed in PubChem BioAssay.

A portion of the library, so the mix of outcomes need not match the whole.
